Screening data as filed in PubChem.
NS1 inh: inhibitors of influenza NS1 protein function; S. cerevisiae slowed by influenza A NS1, growth recovery by OD600; Potency, µM (series often up to 46.1 µM), without a hit: at the highest dose activity, positive = more growth; 270,000 tested, 0.4% active; also: actives are rising curves; nearly all actives have a fitted effect of over 50% in size
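S. cerevisiae expressing influenza A NS1, grown in glucose, washed, then diluted 1:100 into pH 6.0 -URA galactose medium with 23 nl compound. Growth recovery read as OD600; NS1-free strain serves as control.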
2A StopGo: FMDV 2A StopGo reporter, luciferase signal; human cells with a luciferase reporter of 2A StopGo recoding; control for the full effect not named in the record; Potency, µM (highest dose often 57.9 µM), for the others: top-dose signal change, negative = less light; 410,000 tested, 1.2% active; AID 1159524; active = well fitted falling curve with a large enough effect; inconclusive = small, poorly fitted or top-dose-only effect; inactive = no such curve, though single readings can be large or run the other way; tested in HEK293T cells; also: % is scaled to controls: 0 for no effect and ±100 for the full control effect; nearly all actives have a fitted effect of over 45% in size; luciferase light after 4 h
Cruzain inh Det: blocks cruzain activity in presence of Triton detergent | 200,000 tested, 0.43% active | P25779 | Potency, µM, inactives show max response, negative = inhibition, most hits filed as inhibitors | purified cruzain, Z-FR-AMC fluorescence, 0.01% Triton; active = well fitted curve in the direction sought with a large enough effect; inconclusive = small, poorly fitted or top-dose-only effect, or another doubt; inactive = no such curve, though single readings can be large; an effect the other way counts as inactive or inconclusive;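 also: plate controls were neutral wells for no effect and buffer without enzyme for full effect; nearly all actives have a fitted effect of over 40% in size; top concentration of the series not given in the record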
Target sequence (P25779 123-467 limits assumed): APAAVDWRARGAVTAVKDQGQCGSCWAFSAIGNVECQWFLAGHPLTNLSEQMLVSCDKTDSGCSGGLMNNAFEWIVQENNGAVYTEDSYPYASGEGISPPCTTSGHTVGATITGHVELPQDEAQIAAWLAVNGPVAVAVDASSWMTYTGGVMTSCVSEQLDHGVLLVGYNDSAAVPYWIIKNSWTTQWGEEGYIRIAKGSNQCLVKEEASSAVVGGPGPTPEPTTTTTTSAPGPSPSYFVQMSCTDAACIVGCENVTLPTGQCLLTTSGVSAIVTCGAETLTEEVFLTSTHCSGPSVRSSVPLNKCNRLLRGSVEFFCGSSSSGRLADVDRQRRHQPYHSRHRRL
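Cruzain (1.5 nM) preincubated 15 min at RT with compound in 100 mM sodium acetate pH 5.5, 5 mM DTT, 0.01% Triton X-100. Reaction started with 2 uM Z-FR-AMC; AMC fluorescence (ex 360/em 450 nm) change over 60 s gave rate.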
RE007 growth inh: less growth of the S. pombe RE007 Vpr strain. S. pombe RE007 Vpr strain, BacTiter-Glo ATP luminescence, 24 h; control for the full effect not named in the record. Potency, µM (series often up to 92.2 µM), for the others: at the highest dose activity change, negative = less growth. 360,000 tested, 0.21% active. AID 651644; active = well fitted falling curve with a large enough effect; inconclusive = small, poorly fitted or top-dose-only effect; inactive = no such curve, though single readings can be large or run the other way;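 also: % is scaled to controls: 0 for no effect and ±100 for the full control effect; nearly all actives have a fitted effect of over 50% in size; the assay follows cell death caused by Vpr and the record does not say whether a fall means rescue or toxicity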
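Fission yeast RE007 carrying one integrated HIV-1 vpr copy, seeded at OD 0.01 in PMG+AL medium with 23 nL pinned compound. Grown 24 h at 30 degrees; viability read by BacTiter-Glo luminescence after 5 min.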
SARS PLP yeast: blocks SARS-CoV papain-like protease in a yeast assay. 330,000 tested, 0.19% active. Potency, µM (titrated, usually from 32.9 µM), for the others: at the highest dose activity, positive = growth rescue. S. cerevisiae expressing SARS-CoV PLpro, growth rescue; control for the full effect not named in the record. AID 485353; also: 0% is about no effect; nearly all actives have a fitted effect of over 55% in size; growth read by luminescence after 48 h
MARV entry inh: blocks Marburg virus binding to or entry into cells; Marburg virus pseudotyped entry inhibition, cell reporter; control for the full effect not named in the record; about a third of the inactives were read at about 46 µM; Potency, µM (titrated, usually from 37.8 µM), inactives show at the highest dose activity change, negative = inhibition, actives largely listed as inhibitors; 300,000 tested, 1.8% active; AID 540276; active = well fitted inhibition curve with a large enough effect; inconclusive = small, poorly fitted or top-dose-only effect, or effect the other way; inactive = flat fitted curve, though single readings scatter; tested in HEK293 cells; about a fifth of its hits are not listed in these tables; also: % is scaled to controls: 0 for no effect and ±100 for the full control effect; luciferase read-out
LASV entry inh: blocks Lassa virus binding to or entry into cells; 300,000 tested, 1.2% active; Lassa virus pseudotype entry inhibition, cell reporter; control for the full effect not named in the record; Potency, µM (series often up to 37.9 µM), without a hit: at the top dose activity change, negative = inhibition, usual class: inhibitors; active means well fitted inhibition curve with a large enough effect; inconclusive means small, poorly fitted or top-dose-only effect, or effect the other way; inactive means flat fitted curve, though single readings scatter; tested in HEK293 cells; also: % is scaled to controls: 0 for no effect and ±100 for the full control effect; nearly all actives have a fitted effect of over 50% in size; luciferase read-out
Cruzain inh noDet: cruzain (T. cruzi) inhibition without detergent. purified cruzain, Z-FR-AMC fluorescence, no detergent. P25779. 200,000 tested, 2.3% active. Potency, µM, for inactives: max response, negative = inhibition, actives largely listed as inhibitors; active = well fitted curve in the direction sought with a large enough effect; inconclusive = small, poorly fitted or top-dose-only effect, or another doubt; inactive = no such curve, though single readings can be large; an effect the other way counts as inactive or inconclusive;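 also: plate controls were enzyme without inhibitor for no effect and buffer without enzyme for full effect; nearly all actives have a fitted effect of over 40% in size; top concentration of the series not given in the record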
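Detergent-free condition (0.00005% Triton X-100) in acetate buffer pH 5.5 with DTT. 1.5 nM enzyme and compound were pre-mixed 15 min, then 2 uM Z-FR-AMC substrate added; reaction progress from fluorescence change between first and third reads (60 s).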
Active calls of the source: *; ? = inconclusive; . = not tested or not shown; & = joins results of further samples; [ ] = dose if it differs, or a comment. Unless noted, calls follow the shape of the dose curve; as a rule, active means well fitted rising curve with a large enough effect; inconclusive means small, poorly fitted or top-dose-only effect; inactive means no such curve, though single readings can be large or run the other way. Potency is read from the fitted curve at half-maximal effect.

SMILES	NS1 inh	2A StopGo	Cruzain inh Det	RE007 growth inh	SARS PLP yeast	MARV entry inh	LASV entry inh	Cruzain inh noDet
CCOc1ccc(NC(=O)Nc2cc(C(=O)O)ccc2N2CC3CC(C2)c2cccc(=O)n2C3)cc1 (stereo not drawn)	?	-3%	.	-5%	-3%	.	.	.
CCOC(=O)N1CCN(C(=O)CN2C(=O)c3ccccc3S2(=O)=O)CC1	-42%	60%[activator]	.	-1%	0%	19%	12%	.
COC(=O)c1ccccc1NC(=O)N1CCc2c(sc3c2CCCC3)C1c1ccc(F)cc1 (stereo not drawn)	.	-19%	1.0%	.	.	.	?	1%
O=C(CCS(=O)(=O)c1ccc(Br)cc1)N1CCN(c2ccc(F)cc2)CC1	-8%	-21%	.	-7%	1%	.	.	.
O=C(c1cc(COc2ccc(F)cc2Cl)on1)N1C[C@H]2CC[C@H]1C2	-43%	46%[activator]	.	1%	-11%	-15%	?	.
Cc1ccc(NC(=O)c2ccc(N/N=C/c3cccc(O)c3)c([N+](=O)[O-])c2)cc1	8%	0%	0.4%	9%	2%	?	?	10µM*
CCn1c(SCC(=O)N/N=C(\C)c2ccco2)nnc1-c1ccccc1	2%	-20%	.	7%	0%	.	.	.
Cc1cc(C)cc(-c2nnc(SCC(=O)c3ccc4c(c3)OCCO4)o2)c1	-1%	9%	-4.1%	9%	5%	2%	8%	-11%
Cc1cc(C)c(NS(=O)(=O)c2cc(-c3onc(C)c3C)ccc2C)c(C)c1	.	4%	-1.8%	.	.	.	-11%[46.1 µM]	4%
CC1(C)CC(=O)C/C(=N/NC(=O)CCCOc2ccc(Cl)cc2Cl)C1	26%	22%	-0.5%	16%	5%	-5%	4%	5%
Clc1ccc(OCc2nc(-c3ccc(Br)o3)no2)cc1	-15%	18%	0.7%	-3%	5%	.	.	-2%
Cc1c(CC(=O)Nc2ccc(Cl)cc2)sc2ccc(Cl)cc12	2%	-11%	.	-9%	2%	.	.	.
CC(C)CC(N(C)C)C1(c2ccc(Cl)cc2)CCC1 (stereo not drawn)	.	?	2.5%&-0.4%	?	24%&-2%	.	.	-1%&1%
CCc1cccc2c(C(=O)COC(=O)c3nccnc3N)c[nH]c12	.	48%[activator]	.	-17%	.	47%	9%[46.1 µM]	.
c1ccc(CN2CCC(Nc3nc(-c4ccccc4)nc4ccccc34)CC2)cc1	-125%	-17%	0.6%	20%	-8%	?	?	15%
Cn1cc(C(=O)N/N=C/C(Br)=C\c2ccccc2)ccc1=O	25%	4%	-2.3%	-22%	-10%	?	?	-4%
O=C(O)c1ccccc1Cc1nc2cc(Cl)ccc2c(=O)[nH]1	5%	-15%	.	-18%	1%	2%	-28%	.
COc1cc(Br)cc(/C=N/c2ncn[nH]2)c1O	-28%	-16%	7.5%	?	-32%	1%	?	3%
CCc1cccc(-n2c(=O)c3cccnc3n2CC(=O)Nc2ccccc2C(=O)OC)c1	.	-14%	-1.6%	.	.	.	19%[46.1 µM]	1%
Nc1nc2n(c1C(=O)c1ccccc1)CCC2	1%	12%	-1.1%	10%	.	21%	0%	-3%
CC(C)c1cc(C(=O)N/N=C/C(Br)=C/c2ccccc2)n[nH]1	14%	-11%	.	-55%	-11%	.	.	.
Cc1ccccc1C(=O)Nc1sc2c(c1C(=O)N1CCCCC1)CCC(C)C2 (stereo not drawn)	.	29%	-6.9%	.	.	?	-1%[46.1 µM]	-2%
CC(C)Cn1nc(C(=O)Nc2cccc(C(=O)NC3CC3)c2)c2ccccc2c1=O	.	-18%	.	0%	-5%	-29%	?	.
O=C(COC(=O)c1ccccn1)NCc1ccccc1	0%	.	0.6%	-17%	1%	9%	5%	0%
O=C(c1ccc(Oc2cc(Cl)cc(Cl)c2)o1)N1CCCCC1	-3%	4%	.	17%	-1%	.	.	.
O=C(CNC(=O)c1ccccc1Br)N/N=C/c1ccco1	6%	-10%	.	13%	0%	?	0%	.
O=C(COC(=O)c1cc2ccccc2oc1=O)Nc1cccc(Br)c1	.	7%	.	26%	1%	9%	0%	.
CCOC(=O)c1ccc(NC(=O)c2cc3c(=O)n(C)c4ccccc4c3n2C)cc1	.	-4%	-0.8%	.	.	9%[46.1 µM]	-1%[46.1 µM]	-2%
Cc1nc(-c2ccccc2)sc1C1(C)CC(c2cccc([N+](=O)[O-])c2)=NO1 (stereo not drawn)	-1%	3%	.	-14%	-3%	.	.	.
Cc1nnc(N2CCN(c3ccccc3F)CC2)c2c1nnn2Cc1ccccc1	.	-1%	-0.7%	.	.	5%[46.1 µM]	25%[46.1 µM]	8%
CCNC(=O)NC(=O)CSc1ccc(S(=O)(=O)N(C)C2CCCCC2)cn1	.	2%	.	17%	-8%	?	-23%	.
CCCOc1ccc(C2CC(=O)NC2=O)cc1 (stereo not drawn)	5%	-4%	.	20%	0%	5%[46.1 µM]	19%	.
COc1ccccc1/C=C/C(=O)OCC(=O)N1CCN(S(=O)(=O)c2ccc(C)cc2C)CC1	.	0%	.	27%	-3%	?	?	.
CNC(=O)C1CC(=O)N(c2ccc(OCC(=O)Nc3ccccc3)cc2)C1 (stereo not drawn)	.	-17%	.	2%	.	22%[46.1 µM]	-5%	.
Cc1ccc(CNC(=O)c2ccc(N3CCCC3=O)cc2)cc1	-2%	47%[activator]	2.0%	13%	-3%	8%	-1%	10%
Cc1ccn2nc(S(=O)(=O)Nc3c(F)cccc3F)nc2n1	13%	-18%	9.6%	-3%	-8%	2%&2%&2%	?	1%
CCOc1ccccc1CN1CCC(Oc2cccc(C(=O)NCCOC)c2)CC1	2%	-12%	.	-17%	-1%	?	28%[46.1 µM]	.
CCOC(=O)c1cnc2ccc(C)cc2c1Nc1ccc(OCc2ccccc2Cl)cc1	.	?	-5.4%	.	.	-34%[46.1 µM]	-3%[46.1 µM]	-1%
COc1cccc(-n2c(C)nn(C)c2=O)c1	1%	-23%	3.6%	-4%	-1%	-3%	-1%	1%
O=C1CC(c2ccccc2)CC(O)=C1C=Nc1ccccc1 (stereo not drawn)	.	23%	.	?	-3%	20%[46.1 µM]	?	.
CCOC(=O)c1cc(-c2ccccc2)sc1NC(=O)CC(C)C	1%	-6%	-8.9%	-2%	-27%	-3%	-22%	-10%
Cc1cccc(NC(=O)CCn2nc(-c3ccccc3)c3ccccc3c2=O)c1	.	-7%	-6.4%	.	.	.	?	?
O=C1CN(C(=O)COC(=O)COc2ccc3c(c2)CCC3)c2ccccc2N1	-7%	-3%	-17%	0%	2%	6%[46.1 µM]	24%	-9%
Cc1ccc(C(=O)COC(=O)c2ccccc2N2C(=O)C3C4CCC(C4)C3C2=O)cc1C (stereo not drawn)	-1%	6%	2.9%	5%	0%	-3%	3%	5%
Cc1cnc(C(=O)N2CCN(S(=O)(=O)c3ccc4ccccc4c3)CC2)cn1	-2%	?	-1.5%	5%	14%	14%	-22%	?
CCC(=O)N1c2ccccc2CC1C(=O)NCc1cc(OC)ccc1OC (stereo not drawn)	.	-15%	1.4%	.	.	.	?	9%
COc1ccc(Br)c(C(=O)NC2CCCC2)c1	.	15%	.	2%	2%	11%[46.1 µM]	27%[46.1 µM]	.
O=C(COC(=O)c1cccc(NC(=O)c2ccc(Br)cc2)c1)c1ccc(Br)cc1	.	?	-1.7%	.	.	?	30%[46.1 µM]	5%
COc1ccccc1NC1=NCC(=O)N1Cc1ccccc1	-4%	28%	1.3%	3%	3%	20%	8%	-8%
O=C(CNC(=O)c1ccccc1F)OC(C(=O)Nc1cc(C(F)(F)F)ccc1Cl)c1ccccc1 (stereo not drawn)	5%	-1%	5µM*	18%[3.69 µM]	-3%	0%	-12%	7.9µM*
CC(=O)Nc1ccc(NC(=O)/C=C/c2ccc3c(c2)OCO3)cc1	1%	10%	.	-10%	0%	-29%[46.1 µM]	-10%	.
Cc1cc(NC(=O)c2cc3ncc(Br)cn3n2)no1	0%	39%[activator]	5.0%	-1%	3%	-14%	1%	1%
COc1ccc(-c2cc(C(F)(F)F)n3ncc(C(=O)NCC4CCCO4)c3n2)cc1 (stereo not drawn)	1%	0%	-7.2%	21%	0%	-6%	16%	0%
Cc1ccc(NC(=O)Nc2ccno2)cc1	-2%	24%	.	-13%	-2%	.	.	.
O=C(NNc1cccc(Cl)n1)Nc1cccc(Cl)c1	4%	31%[activator]	5.5%	52%	2%	4%	13%	?
CC(=O)c1ccccc1C(=O)N1CCCC(N2CCN(Cc3ccc4c(c3)OCO4)CC2)C1 (stereo not drawn)	10%	5%	.	-7%	4%	3%	8%	.
COCCNc1nc(-c2ccc(OC)cc2)c(-c2ccc(OC)cc2)s1	.	-22%	.	-4%	-1%	?	-28%	.
Cc1cc(C(=O)N/N=C/c2ccc(-c3cccc(Br)c3)o2)n[nH]1	0%	-5%	.	-2%	1%	.	.	.
COc1ccc(C)cc1-n1cnc2cc(C(=O)NC3CCCC3)ccc21	.	6%	-0.6%	.	.	.	0%[46.1 µM]	-3%
CCOC(=O)Cc1csc(NC(=O)Nc2ccc(Cl)cc2)n1	-5%	?	.	-5%	0%	?	?	.

Continuation:
SMILES	NS1 inh	2A StopGo	Cruzain inh Det	RE007 growth inh	SARS PLP yeast	MARV entry inh	LASV entry inh	Cruzain inh noDet
CCc1cccc(C)c1NC(=O)C1CCN(S(=O)(=O)c2c(C)noc2/C=C/c2c(C)cc(C)cc2C)CC1	.	-14%	-0.7%	.	.	.	?	-4%
CCCC(c1nnnn1Cc1cccs1)N1CCN(c2ccc(OC)cc2)CC1 (stereo not drawn)	-30%	-14%	-1.6%	12%	-13%	?	-25%	18%
CCc1c(C)nc(N2CCN(c3ccccc3)CC2)[nH]c1=O	-7%	-13%	.	3%	9%	.	.	.
COc1cc2cc(CN(Cc3nnnn3Cc3ccccc3)CC3CCCO3)c(=O)[nH]c2cc1OC (stereo not drawn)	-16%	-6%	-3.4%	3%	-2%	12%	-1%	?
